Six1-Eya2 inh – blocks human Six1 binding to Eya2. activity change, % (concentration not given with the values). AlphaScreen GST-Six1/His-Eya2 binding, biochemical; active compounds read low; control for the full effect not named in the record. Q15475+O00167. 360,000 tested, 0.56% active; in the data active = activity change below about -65%; inconclusive = about -30% to -65%; inactive = above about -30%; also: % is scaled to controls: 0 for no effect and ±100 for the full control effect
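Six1/Eya2 binding was read as AlphaScreen signal after compounds were pinned into GST-Six1 plus His-tagged Eya2 (5X stock 250/500 nM) in pH 8.0 Tris/NaCl/TCEP buffer, beads added, then incubated 1 h, 37 C, dark.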
CtBP-E1A inh – blocks the CtBP interaction with E1A; 340,000 tested, 0.49% active; activity change, % (test concentration not listed); AlphaScreen GST-E1A/His-CtBP binding, 1536-well; active compounds read low; control for the full effect not named in the record; in the data active means activity change below about -65%; inconclusive means about -30% to -65%; inactive means above about -30%; also: % is scaled to controls: 0 for no effect and ±100 for the full control effect
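GST-E1A and His-tagged CtBP (125 nM each as 5X stock) were preincubated with pin-transferred compound for 2 h at 37 °C in the dark, then glutathione donor and nickel acceptor beads were added for 1 h before AlphaScreen reading.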
TRPV1 potentiator – enhances activation of the human vanilloid receptor TRPV1. TRPV1-expressing cells, Fluo-8 calcium influx, capsaicin EC20 potentiation; host cell line not named in the record; control for the full effect not named in the record. potentiation, % at 8.33 µM. 320,000 tested, 0.02% active. AID 540277; active means potentiation above 80%; inconclusive means 30% to 80%; inactive means below 30%; also: 0% is about no effect
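Cells expressing TRPV1 were dye-loaded with Fluo-8 and read kinetically: 10 s baseline, 3 min after compound (agonist portion), then 2 min after EC20 capsaicin (allosteric enhancer portion). Calcium-bound dye fluorescence at 480/520 nm.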
TRPML1 inh – human mucolipin-1 channel inhibition | Q9GZU1 | activity change, negative = inhibition, % (test concentration not listed) | TRPML1-inducible cells, Ca2+ dye fluorescence, FDSS; active compounds read low; inhibition of EC80 agonist-evoked calcium signal | 390,000 tested, 0.02% active; in the data active means activity change below about -50%; inconclusive means about -30% to -50%; inactive means above about -30%;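 also: stimulus is agonist 54-4 at its EC80 concentration; % is scaled to controls: 0 for no effect and ±100 for the full control effect; compound concentration not given in the record; the text of the record puts the active cut at -80%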
Target sequence (Q9GZU1 whole entry, looked up): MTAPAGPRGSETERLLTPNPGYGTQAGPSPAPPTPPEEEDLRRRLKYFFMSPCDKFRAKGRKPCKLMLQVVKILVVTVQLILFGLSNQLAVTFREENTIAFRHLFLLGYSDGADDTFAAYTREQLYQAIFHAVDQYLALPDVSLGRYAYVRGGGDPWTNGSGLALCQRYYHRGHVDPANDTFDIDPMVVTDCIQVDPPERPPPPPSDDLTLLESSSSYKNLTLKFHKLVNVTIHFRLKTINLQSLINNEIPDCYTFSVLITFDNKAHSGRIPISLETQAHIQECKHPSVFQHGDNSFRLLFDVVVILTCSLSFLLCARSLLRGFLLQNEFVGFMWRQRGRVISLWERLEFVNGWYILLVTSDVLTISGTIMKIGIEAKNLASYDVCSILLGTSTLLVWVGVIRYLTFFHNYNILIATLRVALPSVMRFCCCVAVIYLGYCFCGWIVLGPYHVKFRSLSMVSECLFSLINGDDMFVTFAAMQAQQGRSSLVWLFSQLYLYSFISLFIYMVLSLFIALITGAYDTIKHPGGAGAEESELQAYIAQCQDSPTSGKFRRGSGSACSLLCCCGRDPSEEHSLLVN
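Calcium fluorescence in TRPML1-DL cells induced overnight with Tet: a 110 s read after compound pin addition, then a 110 s antagonist read after challenge with 54-4 at 4 uM final (EC80).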
TRPML1 agonist – human mucolipin-1 channel agonism | TRPML1-expressing cells, Ca2+ dye fluorescence, FDSS; host cell line not named in the record; reference of the full effect not given here | AID 624414 | activation, % (test concentration not listed) | 410,000 tested, 0.12% active | Q9GZU1; in the data active = activation above about 50%; inconclusive = about 30% to 50%; inactive = below about 30%; also: 0% is about no effect; the text of the record puts the active cut at 80%
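Kinetic FDSS Ca2+ read in Tet-induced TRPML1-DL cells (ABD Ca8 dye plus quencher, 45-90 min RT loading): baseline, then compound, then 110 s agonist window; EC80 agonist 54-4 at 4uM final added afterwards for a 110 s antagonist window.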
D2 PAM – positive allosteric modulators of human D2 dopamine receptor | P14416 | 360,000 tested, 0.23% active | DiscoveRx D2 beta-arrestin cells, luminescence, 90 min; 100% = 57 uM dopamine signal | potentiation, % (no concentration beside the values); active = potentiation of 50% or more; inconclusive = 30% to 50%; inactive = 30% or less;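 also: compound concentration not given in the record; tested on top of an EC20 dose of dopamine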
Target sequence (P14416 whole entry, looked up): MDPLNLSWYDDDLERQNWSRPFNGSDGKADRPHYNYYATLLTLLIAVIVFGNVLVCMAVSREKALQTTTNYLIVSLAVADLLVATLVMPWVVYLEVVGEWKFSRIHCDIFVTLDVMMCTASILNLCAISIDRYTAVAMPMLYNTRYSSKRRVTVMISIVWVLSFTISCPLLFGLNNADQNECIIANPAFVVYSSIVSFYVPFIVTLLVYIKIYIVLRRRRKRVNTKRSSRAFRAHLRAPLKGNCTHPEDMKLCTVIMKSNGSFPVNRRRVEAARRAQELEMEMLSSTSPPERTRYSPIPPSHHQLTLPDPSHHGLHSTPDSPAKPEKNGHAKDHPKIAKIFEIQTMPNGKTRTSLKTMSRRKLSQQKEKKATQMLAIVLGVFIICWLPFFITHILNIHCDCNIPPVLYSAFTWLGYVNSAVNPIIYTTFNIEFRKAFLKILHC
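D2 cells co-treated with compound plus 50 nM dopamine (EC20) for 90 min at 37 deg C to detect potentiation. Beta-arrestin recruitment was read as enzyme-fragment luminescence after 1 h at ambient temperature. Full response was set by 57 uM dopamine.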
The depositor's hits bear a star; u = inconclusive; x = not tested or not shown; & = joins results of further samples.

| smiles | Six1-Eya2 inh | CtBP-E1A inh | TRPML1 agonist | TRPML1 inh | TRPV1 potentiator | D2 PAM |
| --- | --- | --- | --- | --- | --- | --- |
| Cc1cc(C)c(OCCCCNCc2ccccc2)c(Cl)c1 | 2.1 | 3.0 | -0.6 | -1.3 | 25.5 | -20.0 |
| CSc1ccccc1NC(=O)CN(C)C(=O)CNc1ccc(C(F)(F)F)cc1[N+](=O)[O-] | 5.6 | x | 0.4 | -8.2 | -1.2 | -4.6 |
| COCCNC(=O)c1ccc(CS(=O)(=O)c2cccc(C(F)(F)F)c2)o1 | 10.4 | 11.7 | 0.3 | -1.2 | 3.6 | -2.2 |
| CCO[C@@H]1OC(C(=O)NCc2nc3ccccc3[nH]2)=C[C@H](c2ccccc2)[C@H]1CCCO | 3.5 | -4.4 | 0.2 | 73.2 | -6.9 | -46.9 |
| O=C(CN1CCCCC1)Nc1nc(-c2ccc(F)c(F)c2)cs1 | 10.0 | 19.5 | 0.1 | 1.6 | -2.8 | 6.8 |
| CCN1C(=O)[C@H]2[C@@H](c3ccc(-c4ccc(OC)cc4)c(OC)c3)N[C@@](C)(C(=O)OC)[C@H]2C1=O | 2.7 | 0.2 | 0.1 | -5.9 | 17.8 | -12.8 |
| [O-][n+]1c2c(nn1-c1ccccc1)/C(=N/O)CCC2 | 6.4 | 2.7 | 2.6 | -7.3 | 18.8 | -2.2 |
| CCOC(=O)C(CC(=O)O)=C(c1ccccc1)c1ccccc1 | -13.2 | -2.4 | -1.5 | -3.5 | 0.6 | -2.4 |
| COc1cccc2cc(-c3nnc(SCC(=O)Nc4nc(C)cs4)n3C)oc12 | -8.6 | -23.3 | 0.1 | 41.2 | 5.3 | -1.7 |
| Cn1c(O)c(C=Nc2ccc(Br)cc2)sc1=O | 0.9 | x | 1.4 | 24.5 | -20.9 | -38.1 |
| CCN(/N=C/c1cccs1)c1cc(=O)n(C)c(=O)[nH]1 | -15.6 | -6.4 | 0.8 | 4.3 | 9.3 | -22.0 |
| C[C@H]1CN(Cc2ccccc2)C(=O)[C@@H]1CC(=O)NCc1ccccc1 | -4.4 | 5.7 | 1.2&2.4 | 9.6 | -4.3 | -9.7 |
| O=C(Nc1ccc(Cl)cn1)c1ccc2[nH]c(=O)c(=O)[nH]c2c1 | -26.6 | x | 1.0 | -7.6 | 10.8 | 2.1 |
| CCCc1nc2n[nH]c(N)c2c2c1COC(C)(C)C2 | -1.8 | 5.3 | -0.3 | -3.5 | 1.8 | -7.0 |
| CCn1cc(CNC(=S)Nc2cccc(Cl)c2C)cn1 | -2.0 | 18.3 | 1.0 | 32.8 | -6.0 | -34.7 |
| CSc1cccc(NC(=S)N(C(C)C)C(C)c2ccccn2)c1 (configuration not stated) | 22.1 | -22.5 | 0.9 | -22.6 | -7.1 | -4.7 |
| CC1=C(C(N)=O)C(c2ccc(Cl)cc2)NC(=O)N1 (configuration not stated) | 0.6 | -5.8 | -0.7 | -8.8 | -1.6 | -6.3 |
| COc1ccc(CNc2ccc([N+](=O)[O-])cn2)cc1 | -0.1 | 6.3 | -0.3 | -6.1 | -2.4 | 0.3 |
| COc1ccc(-c2cnn3cc(-c4cccc(Cl)c4)cnc23)cc1 | 4.7 | x | 0.9 | -14.7 | -0.6 | -4.5 |
| COc1ccccc1NC(=O)N(C)C[C@@H]1OCc2cn(nn2)CCCC(=O)N([C@H](C)CO)C[C@H]1C | 3.8 | -13.3 | -0.2 | 7.3 | x | 2.7 |
| COc1cc2c(cc1OC)C(C)N(C(=O)[C@@H](NC(=O)c1ccccc1)C(C)C)CC2 (some centres not stated) | 11.6 | -20.6 | 0.1 | -20.3 | 0.8 | 10.9 |
| CC(C)CCn1c(CN2CCN(Cc3ccccc3)CC2)nc2c1c(=O)n(C)c(=O)n2C | -2.5 | -0.4 | -1.5 | -11.8 | 18.2 | -13.8 |
| CN(c1ccc(OCC(=O)OCC(=O)NC2CCCC2)cc1)S(=O)(=O)c1ccc2ccccc2c1 | -6.6 | 1.0 | -0.2 | 4.9 | 11.7 | -1.7 |
| CC(C)(C)NC(=O)C[n+]1ccc(C(N)=O)cc1 | 4.2 | 1.2 | 0.4 | 1.2 | -12.7 | -1.9 |
| COCCn1c(SCC(=O)N2CCN(c3ccccc3)CC2)nc2c(c1=O)SC(C)C2 (configuration not stated) | 1.0 | -3.2 | 1.6 | 2.7 | 7.1 | -4.4 |
| CCOC(=O)N1CCN(c2c(NCCCN(CC)CC)c(=O)c2=O)CC1 | -8.6 | -0.7 | 1.4 | 17.7 | -8.1 | -5.0 |
| COc1cc([N+](=O)[O-])ccc1NC(=O)CSc1nncn1-c1cccnc1 | 0.0 | -5.8 | -1.6 | -9.4 | 1.2 | -2.0 |
| Cc1ccc(-n2cc(C(=O)c3cc(Cl)ccc3O)cc(C#N)c2=O)cc1 | -5.2 | -0.5 | -0.1 | -4.3 | -9.5 | u |
| Cc1ccc(/C=C2/SC(=O)NC2=S)o1 | u | -27.8 | 2.4 | -18.7 | 28.1 | -3.9 |
| c1cnc2ccc(C(c3nnnn3C3CCCCC3)N3CCN(C4CCCCC4)CC3)cc2c1 (configuration not stated) | -9.5 | -6.6 | -0.3 | -1.8 | x | -4.5 |

Reprinted at random: 2 compounds from above, in no set order.
| smiles | Six1-Eya2 inh | CtBP-E1A inh | TRPML1 agonist | TRPML1 inh | TRPV1 potentiator | D2 PAM |
| --- | --- | --- | --- | --- | --- | --- |
| O=C(CN1CCCCC1)Nc1nc(-c2ccc(F)c(F)c2)cs1 | 10.0 | 19.5 | 0.1 | 1.6 | -2.8 | 6.8 |
| COc1cc([N+](=O)[O-])ccc1NC(=O)CSc1nncn1-c1cccnc1 | 0.0 | -5.8 | -1.6 | -9.4 | 1.2 | -2.0 |

(list continues)
| smiles | Six1-Eya2 inh | CtBP-E1A inh | TRPML1 agonist | TRPML1 inh | TRPV1 potentiator | D2 PAM |
| --- | --- | --- | --- | --- | --- | --- |
| Cc1ccc2nc(-c3ccccc3)c(Cc3cccc(Cl)c3)n2c1 | -5.0 | -7.5 | 2.3 | -16.6 | x | -9.5 |
| Cc1ccccc1-c1noc(-c2ccccc2C(=O)NCC2CCCO2)n1 (configuration not stated) | 1.9 | 5.6 | 4.3 | -7.7 | 1.6 | -0.9 |
| COC(=O)c1oc2ccc(Br)cc2c1NC(=O)CCN1CCOCC1 | 4.4 | -5.8 | 1.1 | 29.6 | 5.6 | -9.9 |
| COc1ccc(CC(=O)c2cc(OC)c(OC)cc2CC(=O)O)cc1OC | -2.6 | 4.0 | -1.1 | 22.7 | -1.7 | 10.4 |
| O=c1cc2c(nn1Cc1ccc(Cl)cc1)-c1ccccc1CC2 | 6.5 | 1.0 | 2.9 | -7.5 | 5.9 | -2.1 |
| Cc1ccccc1NC(=O)c1cc2ccccc2o1 | 4.0 | 6.3 | 0.1&-1.4 | 12.2&1.2 | 8.2 | -3.8 |
| Cc1ccc(S(=O)(=O)N2CCCCC2CCNC(=O)C(=O)NCC2CCCO2)cc1 (configuration not stated) | 12.3 | -1.7 | -0.2 | -6.0 | -1.5 | -7.9 |
| Oc1ccc(CN2CCN(c3ccccc3)CC2)c2cccnc12 | -74.0* | -75.4* | -0.5 | -2.9 | 6.1 | -21.5 |
| O=C1OCCC1Sc1nc2ccccc2s1 (configuration not stated) | -0.2 | 9.0 | -0.8 | -22.3 | 16.6 | -5.4 |
| COCCOc1ccc(C(F)(F)F)cc1NC(=O)c1ccccc1 | 2.7 | -0.3 | -0.6 | 4.8 | -9.9 | -2.7 |
| O=S(=O)(c1ccc(Cl)cc1)c1nc(-c2ccccc2F)oc1NCCCN1CCOCC1 | -3.2 | 10.5 | -0.4 | -18.1 | 5.1 | -33.2 |
| CN(C)c1oc(-c2ccccc2)nc1C#N | -13.7 | -20.5 | 2.9 | 10.7 | -49.3 | -15.6 |
| O=[N+]([O-])C1=C(Nc2cccc3ccccc23)CS(=O)(=O)C1 | -1.0 | -3.1 | -0.2 | -4.5 | 13.7 | -12.8 |
| CCOC(=O)C1(CCCc2ccccc2)CCN(C(=O)c2cc(C)nn2CC)CC1 | 5.4 | x | 1.6 | 29.4 | -16.7 | -10.9 |
| Cc1ccc(CN2C(=O)CCC2(C)C(=O)NCc2cccnc2)cc1 (configuration not stated) | 1.1 | 4.0 | -0.6 | 0.2 | 6.1 | -8.3 |
| Cc1cc2occ(CC(=O)N(C)CC(=O)Nc3c(C)cccc3C)c2cc1C | 1.5 | -25.3 | 0.0 | -4.2 | 18.4 | -1.1 |
| COc1ccc(Cl)cc1S(=O)(=O)NC(C)C(=O)NCc1cccnc1 (configuration not stated) | -15.9 | -2.0 | 0.5 | 12.4 | 8.0 | 2.4 |
| CCOC1=C2[C@@H](CN(S(=O)(=O)c3ccc(C)cc3)[C@H]2c2ccccc2F)[C@H]2C(=O)N(Cc3ccccc3)C(=O)[C@H]2C1 | 2.7 | -2.4 | 1.3 | x | x | -7.9 |
| COc1ccc(OCc2nc3ccccc3[nH]2)cc1 | -1.1 | 7.1 | -0.1 | 1.6 | -7.0 | -4.4 |
| CCOC(=O)Cc1cc(=O)n2[nH]c(C)c(-c3ccccc3)c2n1 | -1.6 | -1.7 | -0.9 | 3.4 | x | -22.7 |
| Cc1ccc(C(=O)Cn2c(C(=O)OCCO)cc3ccccc32)cc1 | 0.8 | 1.7 | -0.3 | 2.5 | 6.7 | -3.7 |
| Cc1ccccc1-c1nc(CN2CCC(C(=O)NC3CCN(Cc4ccccc4)CC3)CC2)c(C)o1 | 0.0 | 4.5 | 0.0 | -4.0 | x | -12.8 |
| O=C(O)CCCn1cc(NC(=O)c2cccc(F)c2)cn1 | -2.3 | -0.9 | 0.3 | 4.0 | 0.1 | -5.0 |
| COc1cc(OC)c2nc(C)c3c(c2c1)N(c1ccc(O)cc1)CC3 | -14.1 | 0.0 | 0.0 | 10.7 | -3.9 | -33.1 |
| CC1CCCCN1C(=O)CN1C(=O)CN(C)C(=O)c2ccccc21 (configuration not stated) | 11.8 | -2.9 | 0.3 | 0.0 | x | -12.8 |
| CC(=O)NC(=O)Nc1sc(=S)n(C)c1C | -0.4 | -7.8 | -0.3 | 5.2 | -10.8 | -16.8 |
| NC(=O)c1ccccc1NC(=O)C(c1ccccc1)c1ccccc1 | -2.4 | 8.7 | 2.4 | 37.0 | x | -0.9 |
| Cn1c(Oc2ccc(F)cc2)c(C=O)c2ccccc21 | 4.6 | 12.8 | -0.1 | -13.3 | 11.7 | -6.5 |
| Cc1cccc(NC(=S)N(CCc2nc3cc(C)c(C)cc3[nH]2)Cc2cccnc2)c1 | 4.3 | 8.6 | 0.2 | -12.4 | 0.5 | -17.5 |
| Cc1ccc(-c2cc(-c3ccccc3)[nH]c(=S)c2C#N)cc1 | 4.3 | 4.6 | 1.4 | 4.9 | 1.8 | -10.2 |
| C=CCN1C(=O)CSc2ccc(C(=O)OCC)cc21 | 5.0 | 1.3 | 0.1 | -4.5 | -8.4 | -3.5 |
| O=S(=O)(NNC(=S)Nc1ccc(S(=O)(=O)Nc2ncccn2)cc1)c1ccc(Br)cc1 | 3.5 | -3.2 | -0.2 | 3.6 | -0.1 | -8.4 |
| CC1(C)NC(=O)N(CCOCCOc2ccc3ccccc3c2Br)C1=O | -2.2 | 2.4 | -0.8 | 15.1 | -17.3 | -9.1 |
| Cc1c(C)c2cc(Cl)c(OC(C)C(=O)NCCN3CCOCC3)cc2oc1=O (configuration not stated) | 1.3 | 3.0 | 0.4 | 8.3 | 5.5 | -14.2 |
